# PINK1 expr mod: changes PINK1 expression | Potency, µM (titrated, usually from 76.6 µM), for the others: at the top dose activation (PINK1 increase), hits mostly activators | PINK1 immunofluorescence, high-content cytometry, 24 h | 410,000 compounds, 0.2% hits; active = well fitted activation curve with a large enough effect; inconclusive = small, poorly fitted or top-dose-only effect; inactive = flat fitted curve, though single readings scatter; cell line not stated here;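 note: % of control where 0% means no effect; nearly all actives have a fitted effect of over 65% in size; a mitochondrial uncoupler was the plate control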
#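 Stable cell line treated 24 h with compounds at 5 concentrations (CCCP controls), then fixed and immunostained for PINK1 plus nuclear and cell stains; PINK1 immunofluorescence quantified by laser-scanning microplate cytometry.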
# * marks the source's active call; other numbers are inactive results; ? = inconclusive. Potency is the fitted concentration of half-maximal effect.
# A first look:
compound | PINK1 expr mod
N#Cc1cccc(NC(=O)N2CCCC3(CCN(C(=O)c4cccc(F)c4)CC3)C2)c1 | 0.0%
COc1ccccc1C1CN(Cc2c(C)nn(C)c2Cl)Cc2ccccc2O1 (stereo not given) | -0.7%

# The whole of this part, repeating the preview:
compound | PINK1 expr mod
N#Cc1cccc(NC(=O)N2CCCC3(CCN(C(=O)c4cccc(F)c4)CC3)C2)c1 | 0.0%
COc1ccccc1C1CN(Cc2c(C)nn(C)c2Cl)Cc2ccccc2O1 (stereo not given) | -0.7%
COCCn1c(=O)c(-c2ccc(F)cc2)nc2cncnc21 | 0.2%
CCNc1ncc2nc(C)c(=O)n(CCC#N)c2n1 | -1.3%
COc1ccc(CNc2ccnc(-c3ccccc3CN(C)C)n2)c(OC)c1 | 0.0%
O=C(c1cccc(N2CCCC2=O)c1)N1CCC(Oc2cccc(CN3CCN(c4ccccn4)CC3)c2)CC1 | -0.3%
Cc1cc(C(=O)NCC2CCC3(CCN(Cc4cccc(F)c4F)CC3)O2)n(C)n1 (stereo not given) | -0.6%
CN(Cc1ccco1)c1ccnc(-c2ccoc2)n1 | -1.3%
CC(=O)Nc1cc(C(=O)N2CCc3c(Cl)cccc3C2)cc2ncn(CCc3ccccn3)c12 | -1.0%
Cc1cccc(CNc2ncnc3ccc(-c4cccc(NS(C)(=O)=O)c4)cc23)c1 | 4.0%
CCCS(=O)(=O)NCc1c(C)ncc2c1CCN(C(=O)c1ccc(Cl)cc1)C2 | -0.1%
COc1ccc(Oc2ncc3nc(-c4ccccc4)c(=O)n(C[C@H]4CCCO4)c3n2)cc1 | 0.4%
COc1cc(=O)n2c(c1C(=O)N(C)Cc1nccs1)CCN(Cc1ccc(F)c(F)c1)CC2 | -0.8%
CN(C)c1ccc(-c2nc(NC3CCNCC3)c3ccccc3n2)cc1 | 3.5%
O=c1cnc2cnc(Oc3ccccc3)nc2n1CCc1ccccc1 | 0.3%
O=C(c1ccncc1)N1CCC[C@@]2(CCN(c3ccccn3)C2)C1 | -0.1%
COc1ccc(Oc2ncc3nc(C)c(=O)n(C4CC4)c3n2)cc1 | 0.1%
CN(C)c1ncc2nc(-c3ccc(Cl)cc3)c(=O)n(C[C@H]3CCCO3)c2n1 | 0.3%
COc1cccc(-c2nc(NCCNC(C)=O)c3ccccc3n2)c1 | -1.2%
CS(=O)(=O)Nc1cccc(-c2cncnc2-n2ccnc2)c1 | -0.3%
O=C(Cn1cncn1)NCC1Cc2cc(-c3ccsc3)cc(Cl)c2O1 (stereo not given) | 0.4%
O=c1c(-c2ccc(F)cc2)nc2cnc(N3CCNCC3)nc2n1Cc1ccc(F)cc1 | 2.8%
COc1ccccc1C(=O)OCC#CCSc1nnc(-c2cccc3ccccc23)o1 | 0.7%
O=C(NCC1Cc2cccc(-c3cncnc3)c2O1)C1CC1 (stereo not given) | -0.6%
COc1ccc(N2C(=O)[C@@H]3C[C@H]2CN3Cc2cccn2-c2ccccn2)cc1Cl | -0.5%
CN(C)Cc1ccccc1-c1nccc(N(C)Cc2ccco2)n1 | -0.3%
CCOC(=O)N1CCN(Cc2ccc3c(c2)CN(C(=O)c2cc(-c4ccccc4)no2)CCO3)CC1 | -0.6%
Cc1ccc2occ(CN3CCOc4ccc(C(C)(O)COc5ccccc5)cc4C3)c(=O)c2c1 (stereo not given) | -0.3%
CSc1sc(C(=O)NN)c2c1C(O)CCC2 (stereo not given) | 9.7%
O=C(c1cnccn1)N1CCC2(CC1)CCN(C(c1ccccc1)c1ccccc1)CC2 | 1.4%
CN(C)c1ncc2ncc(=O)n(CCc3ccccc3)c2n1 | -0.3%
COc1ccc(-n2c(=O)c(CCc3ccccc3)nc3cnc(N4CCN(C)CC4)nc32)cc1 | -0.5%
COCC(=O)Nc1cc(C(=O)N2CCc3c(Cl)cccc3C2)c2c(c1)nc(-c1ccncc1)n2C | 0.0%
COc1ccccc1CNc1ncncc1-c1ccccc1C | 1.4%
N#Cc1cccc(NC(=O)N2CCC3(CC2)CCN(C(=O)c2csnn2)CC3)c1 | -0.2%
Cc1ccc(CN2C[C@@H](Sc3nc(C)cc(C)n3)C[C@H]2C(=O)N2CCN(c3ccccc3F)CC2)cc1 | -0.2%
COc1cccc(-c2cc3c(c(OC)c2)OCCN(S(=O)(=O)c2ccccc2OC(F)(F)F)C3)n1 | -0.3%
Cc1nc2cnc(N3CCN(C)CC3)nc2n(CCC#N)c1=O | -0.9%
Fc1ccc(Nc2nc(-c3ccoc3)nc3ccccc23)cc1 | 1.7%
O=C(Oc1ccccc1)N1CCC[C@@]2(CCN(c3ccccn3)C2)C1 | 0.7%
COc1cccc(-c2ccc3ncnc(NCc4ccc(OC)cc4OC)c3c2)c1 | 1.0%
CS(=O)(=O)N1CCC2(CCN(c3ccccc3)CC2)CC1 | 1.1%
COc1ccc(C(=O)N2CCC3(CCN(Cc4ccccc4OC)CC3)CC2)cc1 | -0.5%
Cc1ccccc1NS(=O)(=O)c1ccc2c(c1)CCC(=O)N2 | 0.2%
COc1ccc(CN2CCN(C(C)=O)CC2)cc1OC1CCN(C(=O)c2ccc3ccccc3n2)CC1 | 0.0%
Cc1cnc(CNc2ccnc(-c3cccc(NS(C)(=O)=O)c3)n2)cn1 | -1.1%
Cc1cccc(-c2ccc3ncnc(NCc4cccs4)c3c2)c1 | ?
O=C(c1ccc(-c2cc(O)c3ncccc3c2)cc1)N1CCNCC1 | -0.8%
Cc1occc1C(=O)Nc1cccc(-c2nc(CNC(=O)c3ccc(N4CCCCC4)cc3)c(C)o2)c1 | 0.7%
Cc1cnc(C)c(-c2cccc3c2OC(CNC(=O)/C=C/c2ccncc2)C3)n1 (stereo not given) | -0.4%

# Four entries already listed, ordered by their value in PINK1 expr mod, smallest number first:
compound | PINK1 expr mod
COc1cccc(-c2cc3c(c(OC)c2)OCCN(S(=O)(=O)c2ccccc2OC(F)(F)F)C3)n1 | -0.3%
COCC(=O)Nc1cc(C(=O)N2CCc3c(Cl)cccc3C2)c2c(c1)nc(-c1ccncc1)n2C | 0.0%
O=C(Oc1ccccc1)N1CCC[C@@]2(CCN(c3ccccn3)C2)C1 | 0.7%
O=C(c1cnccn1)N1CCC2(CC1)CCN(C(c1ccccc1)c1ccccc1)CC2 | 1.4%

# (further entries)
compound | PINK1 expr mod
COc1ccc(Oc2ncc3ncc(=O)n(CCC#N)c3n2)cc1 | 0.6%
COc1ccc(C(=O)NCC2Cc3c(F)ccc(-c4nc(C)cnc4C)c3O2)cc1F (stereo not given) | -0.1%
CCOc1ccc(Cl)cc1Nc1nc(NCCO)nc(N2CCCC2)n1 | 1.8%
Cc1nc(SCc2nc3ccc(Br)cc3[nH]2)c2oc3ccccc3c2n1 | 2.2%
CN(C)S(=O)(=O)c1ccc2c(c1)C(=O)c1cc(S(=O)(=O)N(C)C)ccc1CC2 | 1.7%
COc1ccc(OC)c(-c2nnc3n2N=C(c2ccc(OC)c(OCC4CC4)c2)CS3)c1 | 0.4%
CC(C)=CCCC(C)C1CC[C@@]2(C)C3=C(CC[C@@]12C)C1(C)CCC(O)C(C)(C)C1CC3 (stereo not given in full) | 5.3%
CCC1CN(CCNC(=O)c2cscn2)Cc2cc(OC)ccc2O1 (stereo not given) | -1.3%
COc1ccc2cc(CNCc3nonc3C)c(N3CCCC(CO)C3)nc2c1 (stereo not given) | 2.4%
O=C(O)c1cc(=O)c2ccc(Cl)cc2[nH]1 | 0.9%
COc1ccccc1C1CN(CC(=O)N2CCC(C(O)c3ccccn3)CC2)Cc2ccccc2O1 (stereo not given) | 1.3%
CC(=O)N1CCC[C@H]1C(=O)NCC1Cc2cc(F)cc(-c3ccc(F)c(C)c3)c2O1 (stereo not given in full) | -0.7%
CCn1c(-c2ccccc2F)nc2cc(C(=O)N3CCCC(CO)C3)cc(NC(C)=O)c21 (stereo not given) | 0.4%
CN(C)c1ncc2nc(-c3ccc(Cl)cc3)c(=O)n(-c3ccccc3)c2n1 | 10.7%
CNc1ncnc2ccc(-c3cccc(NS(C)(=O)=O)c3)cc12 | 5.7%
COc1cc(-c2cc(C)c3cccc(OC)c3n2)cc2c1OCCN(C(=O)Cn1nc(C)cc1C)C2 | -0.2%
CNc1cc(-c2c(C)noc2C)ncn1 | -0.5%
O=C(c1ccco1)N1CCC2(CCN(Cc3cc(C(F)(F)F)cc(C(F)(F)F)c3)CC2)CC1 | 0.2%
O=C(c1csnn1)N1CCC2(CCCN(c3ccccn3)C2)CC1 | -1.1%
Cn1cccc1C(=O)N1CCC2(CCCN(C(=O)Nc3ccccc3)C2)CC1 | 0.6%
COc1cc(=O)n2c(c1C(=O)N(C)Cc1cscn1)CCN(C(=O)c1ccc(C)c(C)c1)CC2 | 1.1%
CC(=O)NC(c1cc(Cl)c2cccnc2c1O)C(C)C (stereo not given) | 5.4%
CC1(C)CC2C1CCC1(C)OC1CCC2(C)O (stereo not given) | 0.9%
CCNc1ncc2nc(-c3ccc(F)cc3)c(=O)n(CCOC)c2n1 | 5.1%
O=C(c1csnn1)N1CCC[C@@]2(CCN(c3cccc(-c4ccccc4)c3)C2)C1 | 0.1%
Cc1cnc(-n2ncc(C(=O)NCc3ccncc3)c2C2CC2)nc1-c1cccs1 | 0.9%
CS(=O)(=O)Nc1cccc(-c2ccc3ncnc(N4CCOCC4)c3c2)c1 | 0.4%
COc1ncc2nc(C)c(=O)n(CCc3ccccc3)c2n1 | -0.9%
Cc1c(C(=O)NCC(C)(C)N2CCOCC2)cnn1-c1nccc(-c2cccs2)n1 | 1.2%
CN1CCCC2(CCN(C(=O)c3cccn3C)CC2)C1 | -1.4%
O=C(Oc1cc(OC(=O)c2ccccc2)c2c(c1)OC(c1ccc(OC(=O)c3ccccc3)c(OC(=O)c3ccccc3)c1)[C@@H](OC(=O)c1ccccc1)C2)c1ccccc1 (stereo not given in full) | -0.3%
Cc1cccc(CNc2ncncc2-c2cccc(C#N)c2)c1 | 0.5%
Cc1ccc(CNc2ncnc3sc(C(=O)N4CCC(N5CCCC(O)C5)CC4)c(C)c23)o1 (stereo not given) | 0.7%
O=c1c(-c2ccc(Cl)cc2)nc2cnc(N3CCNCC3)nc2n1CCc1ccccc1 | 15.1%
COc1ccccc1C1CN(Cc2cccc3c2OCO3)Cc2ccccc2O1 (stereo not given) | -0.9%
COc1ccc(OC)c(-c2nnc3n2N=C(c2ccc(OC)c(OC4CCOC4)c2)CS3)c1 (stereo not given) | 2.5%
CC(=O)NC(c1ccco1)c1cc(F)c2cccnc2c1O (stereo not given) | -1.0%
CNc1ccnc(-c2ccccc2OC)n1 | 1.8%
NCCN1CCN(CC(=O)N2c3ccccc3C(=O)Nc3cccnc32)CC1 | -1.3%
CCNc1ncc2nc(-c3ccc(OC)cc3)c(=O)n(Cc3cccs3)c2n1 | 26.1%
Fc1ccccc1-c1nnc2n1N=C(c1ccc(OC(F)F)c(OCC3CC3)c1)CS2 | -0.2%
COC(=O)c1cccc(C(=O)N2CCc3c(cnc(C)c3CNC(=O)/C=C/c3cccs3)C2)c1 | 0.8%
Cn1cccc1C(=O)N1CCC2(CC1)CCN(c1ccc(-c3ccccc3)cc1)CC2 | -0.1%
COc1cccc(CN(C)C(=O)c2cnn(-c3nccc(-c4ccc5c(c4)OCO5)n3)c2C)c1 | -0.4%
COc1ccc(CN2CCOc3ccc(C(O)c4cccnc4)cc3C2)cc1 (stereo not given) | 3.4%
Cc1cccc(CN2C(=O)[C@@H]3Cc4c([nH]c5ccccc45)C(C)(C)N3C2=O)c1 | 7.3%
CCNc1ncc2nc(-c3ccc(Cl)cc3)c(=O)n(-c3ccc(OC)cc3)c2n1 | 3.4%
COc1c(-c2coc3cc4c(cc3c2=O)CC(OC(C)=O)C(C)(C)O4)ccc2c1C=CC(C)(C)O2 (stereo not given) | 1.0%
COc1ccc(Oc2ncc3nc(-c4ccc(OC)cc4)c(=O)n(C4CC4)c3n2)cc1 | 0.1%
COc1cccc(CCNc2ncnc3sc(C(=O)N4CCN(C)CC4)c(C)c23)c1 | -0.8%

# Two successive compounds out of the list so far, for reference:
compound | PINK1 expr mod
Cc1cnc(-n2ncc(C(=O)NCc3ccncc3)c2C2CC2)nc1-c1cccs1 | 0.9%
CS(=O)(=O)Nc1cccc(-c2ccc3ncnc(N4CCOCC4)c3c2)c1 | 0.4%

# (next part)
structure	PINK1 expr mod
CN(C)c1ncc2nc(-c3cccc(C#N)c3)c(=O)n(CCC#N)c2n1	0.4%
COc1ccc(C(=O)N2CCC3(CC2)CCN(C(c2ccccc2)c2ccccc2)CC3)cc1	14.1%
Cc1cc(C)n(Cc2cccc(C(=O)NCC3Cc4cccc(-c5ncccn5)c4O3)c2)n1 (stereo not given)	-0.6%
O=C(CSc1ccncc1)NCC1Cc2cccc(-c3cncnc3)c2O1 (stereo not given)	-0.6%
O=C(NCCc1ccccn1)C1CC12CCN(C(=O)c1ccccc1Cl)CC2 (stereo not given)	0.2%
COc1ccc2[nH]cc(CCNc3ncncc3-c3ccc4c(c3)OCO4)c2c1	0.2%
COc1cc(=O)n2c(c1C(=O)NC(C)c1ccco1)CCN(Cc1ccccc1C(F)(F)F)CC2 (stereo not given)	-0.3%
COCCn1c(=O)c(-c2cc(F)cc(F)c2)nc2cnc(N3CCN(C)CC3)nc21	0.6%
COc1ncc2ncc(=O)n(C)c2n1	-0.9%
COc1cccc(Cn2c(=O)c(-c3cccs3)nc3cnc(N4CCNCC4)nc32)c1	0.4%
Cc1noc(C)c1C(=O)N1CCC2(CCN(Cc3ccncc3)CC2)CC1	1.7%
COc1ccccc1CNc1ncncc1-c1ccc(C(=O)N(C)C)cc1	0.9%
Cc1nc2sccn2c1CN1Cc2ccccc2OC(c2ccccc2F)C1 (stereo not given)	-1.1%
Cc1cnc(CNc2ncncc2-c2cccc(C#N)c2)cn1	2.3%

# As entered above:
# Fc1ccccc1-c1nnc2n1N=C(c1ccc(OC(F)F)c(OCC3CC3)c1)CS2 | PINK1 expr mod = -0.2%
# COc1cc(=O)n2c(c1C(=O)N(C)Cc1cscn1)CCN(C(=O)c1ccc(C)c(C)c1)CC2 | PINK1 expr mod = 1.1%

# High-throughput results: PubChem BioAssay, National Center for Advancing Translational Sciences (NCATS)

# A portion of the library, so the mix of outcomes need not match the whole.
